# Screening data deposited in PubChem BioAssay by National Center for Advancing Translational Sciences (NCATS).
# gsp agonist: agonists of gsp mutant (McCune-Albright syndrome) | 340,000 compounds, 0.13% hits | Potency, µM (doses to about 76.9 µM), without a hit: at the top dose activation (cAMP increase), most hits filed as activators | gsp mutant cells, cAMP HTRF, 30 min; control for the full effect not named in the record; active = well fitted activation curve with a large enough effect; inconclusive = small, poorly fitted or top-dose-only effect, or another doubt; inactive = no such curve, though single readings can be large or run the other way; cell line not stated here;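 further: phosphodiesterase inhibitor Ro 20-1724 added with compounds to block cAMP breakdown; potency means the concentration at half of the fitted maximal effect; nearly all actives have a fitted effect of over 60% in size; about a fifth of the inactives were tested at one dose only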
#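 Cells stably selected in G418 were plated at 2000/well, grown 16-24 hr, then given compounds in DMSO with the PDE inhibitor […] (300 uM solution added) for 30 min at 37C; cAMP was read by HTRF.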
# ClpP mod: qHTS Assay for Activators of ClpP; Potency, µM (doses to about 57.5 µM), without a hit: at the top dose activity change, negative = active; AID 651965, 2013; 340,000 compounds, 1.9% hits; purified B. subtilis ClpP, FRET peptide cleavage, 20 min; ATP-dependent Clp protease proteolytic subunit (Bacillus subtilis (strain 168)), P80244; active = well fitted falling curve with a large enough effect; inconclusive = small, poorly fitted or top-dose-only effect; inactive = no such curve, though single readings can be large or run the other way; further: potency means the concentration at half of the fitted maximal effect; the source files actives as falling curves though it sought activators and does not explain the sign; nearly all actives have a fitted effect of over 65% in size; many hits overshoot -100%
# Target sequence (P80244 whole entry, looked up): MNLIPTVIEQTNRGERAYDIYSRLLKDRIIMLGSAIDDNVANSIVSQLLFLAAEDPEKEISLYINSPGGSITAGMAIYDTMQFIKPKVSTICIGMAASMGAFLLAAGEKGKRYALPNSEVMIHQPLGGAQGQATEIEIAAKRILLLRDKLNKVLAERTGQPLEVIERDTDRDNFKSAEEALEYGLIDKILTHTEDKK
#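 ClpP 10 microg/mL final, pH 8 Tris/KCl buffer with BSA, glycerol, Tween-20; compound pinned in; FRET-FV substrate; RT 20 min; Ex320/Em430; ΔFRET vs ADEP 5.8 microM, DMSO, no enzyme.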
# Sfp PPTase inh: inhibitors of Bacillus subtilis Sfp phosphopantetheinyl transferase; Biochemical Sfp PPTase activity, qHTS; Potency, µM, for inactives: max response, negative = inhibition, usual class: inhibitors; 310,000 compounds, 3.5% hits; active means well fitted inhibition curve with a large enough effect; inconclusive means small, poorly fitted or top-dose-only effect, or another doubt; inactive means no such curve, though single readings can be large or run the other way;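 further: the enzyme is Sfp with the accession as filed and its product quenches rhodamine fluorescence; potency means the concentration at half of the fitted maximal effect; 0% = enzyme reaction without inhibitor and -100% = no enzyme wells; top concentration of the series not given in the record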
#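 Compounds were incubated with enzyme (final 15 nM) for 15 min at room temperature before substrate addition started the reaction. Fluorescence at 525 nm excitation, 598 nm emission was recorded immediately and after 30 minutes.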
# TRPV1 PAM: enhances activation of the human vanilloid receptor TRPV1. Q8NER1. TRPV1-expressing cells, Fluo-8 calcium influx, capsaicin EC20 potentiation; host cell line not named in the record; control for the full effect not named in the record. potentiation, % at 8.33 µM. 320,000 compounds, 0.02% hits; active means potentiation above 80%; inconclusive means 30% to 80%; inactive means below 30%; further: 0% is about no effect
#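 Cells expressing TRPV1 were dye-loaded with Fluo-8 and read kinetically: 10 s baseline, 3 min after compound (agonist portion), then 2 min after EC20 capsaicin (allosteric enhancer portion). Calcium-bound dye fluorescence at 480/520 nm.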
# D2 PAM: potentiates the human D2 dopamine receptor allosterically | P14416 | AID 624464 | potentiation, % (test concentration not listed) | 360,000 compounds, 0.23% hits | DiscoveRx D2 beta-arrestin cells, luminescence, 90 min; 100% = 57 uM dopamine signal; active = potentiation of 50% or more; inconclusive = 30% to 50%; inactive = 30% or less;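 further: compound concentration not given in the record; tested on top of an EC20 dose of dopamine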
# Target sequence (P14416 whole entry, looked up): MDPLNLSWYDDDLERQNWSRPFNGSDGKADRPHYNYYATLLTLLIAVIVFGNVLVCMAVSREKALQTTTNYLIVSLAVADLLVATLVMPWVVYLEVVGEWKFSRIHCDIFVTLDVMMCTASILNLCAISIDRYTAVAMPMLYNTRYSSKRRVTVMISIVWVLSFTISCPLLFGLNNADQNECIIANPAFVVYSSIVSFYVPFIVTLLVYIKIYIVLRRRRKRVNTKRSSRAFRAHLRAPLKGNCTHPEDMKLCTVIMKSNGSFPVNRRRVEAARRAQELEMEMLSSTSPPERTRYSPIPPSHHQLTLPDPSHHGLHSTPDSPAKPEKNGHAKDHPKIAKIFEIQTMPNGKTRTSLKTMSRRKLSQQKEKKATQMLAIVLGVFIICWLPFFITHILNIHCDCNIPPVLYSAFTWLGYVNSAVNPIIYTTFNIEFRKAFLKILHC
#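 D2 cells co-treated with compound plus 50 nM dopamine (EC20) for 90 min at 37 deg C to detect potentiation. Beta-arrestin recruitment was read as enzyme-fragment luminescence after 1 h at ambient temperature. Full response was set by 57 uM dopamine.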
# Menin-MLL FL inh: displaces fluorescein MLL peptide from human menin | 290,000 tested, under 10 active | FP activity change, % at 61.4 µM | Fluorescence polarization, fluorescein-MLL peptide displacement from menin; inconclusive = falling polarisation curve, or a change in total fluorescence; inactive = total fluorescence flat and polarisation flat or rising; no compound was filed as active; the % refers to the polarisation; negative = inhibition;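 further: % of control where 0% means no effect; inhibitors lower the polarisation; unlabelled MLL peptide was the positive control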
# gsp antagonist: antagonists of gsp mutant (McCune-Albright syndrome) | gsp-mutant cells, cAMP HTRF, 30 min; control for the full effect not named in the record | Potency, µM (titrated, usually from 76.9 µM), without a hit: top-dose activity change, negative = inhibition, most hits filed as inhibitors | 340,000 compounds, 0.4% hits; active = falling curve of any shape with a large fitted effect; inconclusive = falling curve, mostly with a smaller effect; inactive = flat or rising curve; cell line not stated here;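 further: intracellular cAMP measured with PDE inhibitor Ro 20-1724 present during compound exposure; potency means the concentration at half of the fitted maximal effect; on the % scale 0 is the no-effect control and ±100 the full control effect; nearly all actives have a fitted effect of over 65% in size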
#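 Measurement of cellular cAMP by homogeneous time-resolved fluorescence following a 30 min compound exposure at 37C. The PDE inhibitor […] was present throughout; the assay buffer was DPBS with 0.05% BSA and 0.005% Tween 20.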
# Starred values were filed as active, the others as inactive; ? = inconclusive; · = no result given; & = joins results of further samples; [ ] = another dose, or the depositor's remark.
Structure	Menin-MLL FL inh	gsp antagonist	D2 PAM	gsp agonist	TRPV1 PAM	ClpP mod	Sfp PPTase inh
O=C(CCC1CCN(C(=O)c2ccccc2Cl)CC1)NCc1ccc(F)cc1	-2.2	-17%	10	-19%[15.4 µM]	3	0.7%	4%
OC1CCN(Cc2nc(Cc3ccccc3Cl)no2)CC1	1.3	5%	-6	13%	-2	·	10%
CN(C)C(=O)CSc1n[nH]c(=O)n1CCc1ccccc1	2.5	-2%	-2	-9%[15.4 µM]	4	·	14%
Cc1nn(-c2cccc(Cl)c2)c2c1C(c1ccncc1)C(C#N)=C(N)O2 (stereo not given)	4.7	40µM*	-23	-1%	-4	0.4%	-9%
CCOC(=O)NCc1cc(-c2nn(C)c(=O)c3ccccc23)ccc1C	1.1	-25%	2	4%	-3	-1.0%	13%
CSCCC(NS(=O)(=O)c1ccccc1)C(=O)OC(C)C(=O)Nc1ccc(Cl)cn1 (stereo not given)	·	3%	1	-14%	-6	1.6%	·
CCOC(=O)c1cccc(NC(=O)Cn2nc(C)n3cccc3c2=O)c1	6.9	2%	-7	?	9	1.2%	19%
O=C(O)c1ccc(N2C(=O)c3cccc(Oc4ccc(Cl)cc4)c3C2=O)cc1	8.7	?	-5	0%[15.4 µM]	-2	·	-8%
Cc1ccccc1NC(=O)NCCc1ccc(Cl)cc1	-3.2	8%	-5	-34%	0	2.1%	18%
Cc1ccc(C(=O)CCc2ccc(N)cc2)cc1	2.5	10%	2	-3%	-5	1.7%	4%

# An excerpt from above in order of their number in D2 PAM, low to high.
Compound,D2 PAM
Cc1nn(-c2cccc(Cl)c2)c2c1C(c1ccncc1)C(C#N)=C(N)O2 (stereo not given),-23
OC1CCN(Cc2nc(Cc3ccccc3Cl)no2)CC1,-6
Cc1ccccc1NC(=O)NCCc1ccc(Cl)cc1,-5

# In a second layout: entries from further up.
# Each structure is followed by: Menin-MLL FL inh | gsp antagonist | D2 PAM | gsp agonist | TRPV1 PAM | ClpP mod | Sfp PPTase inh
CCOC(=O)NCc1cc(-c2nn(C)c(=O)c3ccccc23)ccc1C
 : 1.1 | -25% | 2 | 4% | -3 | -1.0% | 13%
CSCCC(NS(=O)(=O)c1ccccc1)C(=O)OC(C)C(=O)Nc1ccc(Cl)cn1 (stereo not given)
 : · | 3% | 1 | -14% | -6 | 1.6% | ·
CCOC(=O)c1cccc(NC(=O)Cn2nc(C)n3cccc3c2=O)c1
 : 6.9 | 2% | -7 | ? | 9 | 1.2% | 19%
O=C(O)c1ccc(N2C(=O)c3cccc(Oc4ccc(Cl)cc4)c3C2=O)cc1
 : 8.7 | ? | -5 | 0%[15.4 µM] | -2 | · | -8%
Cc1ccccc1NC(=O)NCCc1ccc(Cl)cc1
 : -3.2 | 8% | -5 | -34% | 0 | 2.1% | 18%
Cc1ccc(C(=O)CCc2ccc(N)cc2)cc1
 : 2.5 | 10% | 2 | -3% | -5 | 1.7% | 4%

# (further entries)
Structure	Menin-MLL FL inh	gsp antagonist	D2 PAM	gsp agonist	TRPV1 PAM	ClpP mod	Sfp PPTase inh
O=c1c2ccccc2cnn1-c1ccc(Cl)nn1	5.4	9%	-7	-2%[15.4 µM]	5	·	-8%
O=c1[nH]cnc2c1c(-c1ccccc1)cn2-c1cccc(Cl)c1	-3.0	-4%	-3	14%	2	0.3%	-11%
N#CCCN(CCC#N)C(=O)C1c2ccccc2Oc2ccccc21	?	10%	5	-7%	-10	·	14%
Clc1ccc(Cl)c(Oc2ccc(Oc3nc(Cl)ccc3Cl)cc2)n1	-2.2	7%	-17	-29%	-13	-1.1%	-15%
CS(=O)(=O)Nc1cccc(C(=O)OCCCOc2ccc(F)cc2)c1	7.8	-11%	4	1%	11	1.3%	8%
Cc1ccc(C(=O)Nc2ccccc2-c2ccccc2)cc1[N+](=O)[O-]	-0.7	-4%	-8	-4%	-21	-1.4%	-4%
CCOC(=O)[C@H]1[C@H]2COc3ccc(OC)cc3[C@@H]2N2C(=O)c3cc(OC)c(OC)cc3NC(=O)[C@@]12C	·	2%	-13	38%	7	-11%	·
COc1ccc(OC)c(/C=N/NC(=O)c2cc3c(OC)c(OC)ccc3[nH]2)c1	2.2	-17%	20	5%	9	-12%	0%
CCN(CC)CCCn1c(C)cc2c(c1=O)C(c1cccc(Cl)c1)C(C#N)=C(N)O2 (stereo not given)	-1.1	5%	-34	4%	-9	-2.0%	15%
O=C(c1ccc(Cl)cc1)c1oc2ccccc2c1CS(=O)c1ccccc1 (stereo not given)	2.7	-14%	-6	-3%	-11	-1.8%	45µM*
CCC(C)(C)c1ccc(OCC(=O)Nc2ccncc2)cc1	-4.0	-13%	10	4%[15.4 µM]	-7	-1.9%	-10%
CC(=O)OCCn1c(C)[n+](CCOC(C)=O)c2cc(Cl)c(Cl)cc21	-1.2	3%	-6	-1%	5	·	4%
CCCN(CCC)C(=O)CC(c1ccc(F)cc1)c1ccco1 (stereo not given)	5.2	5%	-12	-32%	-23	-0.1%	-26%
CN(C)/C=C/C(=O)Oc1ccc(Cl)cc1Cl	4.2	6%	-4	-1%[15.4 µM]	-16	·	-14%
Cc1ccc(S(=O)(=O)NC(=O)Nc2ccc(F)cc2)cc1	4.2	11%	-4	-27%	-5	-1.6%	14%
Cc1ccn2cc(CCNS(=O)(=O)c3ccc([N+](=O)[O-])cc3)nc2c1	-1.0	2%	7	-27%[15.4 µM]	-14	·	10%
CCOC(=O)C1CCCN(C(=O)c2ccc([N+](=O)[O-])cc2)C1 (stereo not given)	5.0	13%	-13	7%	23	1.9%	2%
O=C(CSc1nc2ccc(Cl)cc2[nH]1)c1cccs1	1.6	-3%	-12	0%	-3	-1.0%	11%
CCCC(=O)Nc1ccccc1NC(=O)CN(C)S(=O)(=O)c1ccc(C)cc1	1.1	-4%	-1	2%	1	-3.9%	3%
CC(C)NC(=S)N/N=C/c1cccs1	3.6	6%	19	-21%	11	-1.1%	6%
Cn1nnnc1SCc1c(F)cccc1F	2.3	12%	-2	8%	20	1.7%	17%
Cn1c(-c2ccccn2)[n+](C)c2ccccc21	-2.0	14%	-1	1%	-13	-15%	16%
COc1ccc(C(=O)Nc2nc3c(s2)Cc2cc(OC)ccc2-3)cc1	3.1	-4%	16	-1%	-8	-3.1%&-2.6%	79µM*
O=C(NCCc1c[nH]c2ccccc12)/C(=C\c1cccnc1)NC(=O)c1ccccc1Br	-1.2	-4%	19	12%	11	-2.5%	15%
COC(=O)c1ccc(CSc2nc3c(c(=O)n2-c2ccc(C)cc2)SCC3)o1	2.4	-5%	-4	-12%	-61	-3.2%	3%
O=C(Nc1ccc(COc2ccccc2)cc1)Nc1cccc(C(=O)O)c1	-1.6	10%	-7	1%	12	-1.8%	0%
CC1CN(c2ccccc2)CCN1C(=O)c1cc(COc2c(F)cccc2F)on1 (stereo not given)	12	-4%	0	26%	-10	-2.8%	-15%
CCOc1ccccc1CNC(=O)c1ccc2c(c1)N(CC)CCS2	2.4	?	-7	-60%[inhibitor]	16	4.2%&4.3%	-13%
COc1cc(Cl)c(C)cc1NC(=O)c1cc(S(=O)(=O)N(C)C)ccc1N1CCCC1	-0.9	-12%	-4	2%	-4	-7.7%	1%
Cc1cc(C)cc(OCC(=O)N/N=C/c2ccncc2)c1	6.3	-6%	-5	-1%	-16	-2.8%	19%
COc1ccc(N=Nc2c(C)[nH][nH]c2=O)cc1	2.4	2%	-18	-5%[15.4 µM]	?	·	-13%
COc1cc(/C=C/C(=O)OCC(=O)N2CCN(C(=O)c3ccco3)CC2)ccc1O	-1.3	-8%	-7	0%	5	-14%	-27%
CNC(=O)c1cc2c(=O)n3cccc(C)c3nc2n(C(C)C)c1=N	5.5	14%	5	?	-3	11%	18%
Cc1cc(C)c(S(=O)(=O)Oc2ccccc2[N+](=O)[O-])c(C)c1	·	-24%	-8	-12%	·	0.8%	·
CN(C)C(=O)c1nnsc1Sc1ccc(Cl)cc1	0.6	7%	-5	0%[15.4 µM]	-17	·	9%
CCCCn1cnc2c(SCc3ccc(Br)cc3)nc(N)nc21	·	7%	-6	1%	·	·	·

# Complete entries, quoted from the list. Order of values: Menin-MLL FL inh | gsp antagonist | D2 PAM | gsp agonist | TRPV1 PAM | ClpP mod | Sfp PPTase inh
# CNC(=O)c1cc2c(=O)n3cccc(C)c3nc2n(C(C)C)c1=N is listed as 5.5 | 14% | 5 | ? | -3 | 11% | 18%
# COc1ccc(N=Nc2c(C)[nH][nH]c2=O)cc1 is listed as 2.4 | 2% | -18 | -5%[15.4 µM] | ? | · | -13%
# Cc1cc(C)c(S(=O)(=O)Oc2ccccc2[N+](=O)[O-])c(C)c1 is listed as · | -24% | -8 | -12% | · | 0.8% | ·
# CCCCn1cnc2c(SCc3ccc(Br)cc3)nc(N)nc21 is listed as · | 7% | -6 | 1% | · | · | ·
# COc1cc(/C=C/C(=O)OCC(=O)N2CCN(C(=O)c3ccco3)CC2)ccc1O is listed as -1.3 | -8% | -7 | 0% | 5 | -14% | -27%

# Not a hit list; any-hit rate near 5.1%.
